Compound activity from PubChem.
Mtb hypoxia inh: Mtb hypoxia fluorescent reporter inhibition; M. tuberculosis hypoxia-regulated fluorescent reporter, fluorescence; fluorescence inhibition, % (no concentration beside the values); 300,000 tested, 0.1% active;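 active = 35 to 45% if threefold the growth effect, above 45% if 1.5-fold the growth effect; inactive = the rest, general growth blockers included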;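 also: wells of about 50 µL received 100 nL stock; 0% = vehicle wells and 100% = reference inhibitor wells; whole bacteria with a GFP reporter of the hypoxia response; strong numbers were not always called active; many hits fall short of the cut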
PrP UTR inh: inhibition of PrP 5' UTR reporter expression; inhibition, % (concentration not given with the values); 340,000 tested, 0.35% active; cell-based PrP 5' UTR mRNA reporter, plate reader;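 active = every replicate at 50% or more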;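 also: 0 = median of the neutral control wells; tested in H4 reporter cells; numbers are from one replicate; inactives centre near -14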
ugtP null kill: compounds lethal to S. aureus RN4220 ugtP deletion mutant; growth inhibition, % (no concentration beside the values); OD600 growth, 16 h; some inactives read as strong as hits; AID 1259309; 330,000 tested, 0.54% active;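 active = z-score under -3 and OD600 up to 0.15 on both plates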;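 also: plate controls were untreated wells for no effect and antibiotic for full effect; wells of about 80 µL received 100 nL stock; the first replicate is given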
Bead autofluor: flagged as autofluorescent in microsphere protease counterscreen; 360,000 tested, 3.1% active; fluorescence intensity (test concentration not listed); compound autofluorescence counterscreen, microsphere flow cytometry; stronger effect = higher value;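 active = at least 3 SD above the mean of all compounds, about 16000 in these data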;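 also: 100 nL of 1 mM stock went into each well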
Sa RN4220 lethal: S. aureus RN4220 growth inhibition. OD600, 16 h. inhibition, % (test concentration not listed). 330,000 tested, 0.33% active;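 active = z-score of -3 or lower and OD600 up to 0.18 on both plates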;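 also: plate controls were untreated cells for no effect and reference antibiotic for full effect; stock transfer was 100 nL into about 80 µL; one replicate is shown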
BJeLR lethal: kills HRASV12-expressing BJeLR cells; 300,000 tested, 0.17% active; inhibition, % (no concentration beside the values); BJeLR (HRASV12) viability, CellTiter-Glo ATP luminescence, 48 h; reference of the scale not given here; AID 1554;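 active = replicate mean above 50%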;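 also: 50 nL library stock added to about 25 µL; numbers are from one replicate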
Mtb hypoxia inh growth: also measured in Mtb hypoxia inh; calls as there; growth inhibition, %; measured here: M. tuberculosis growth (absorbance);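 0% = vehicle and 100% = reference antibiotic; read after six days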
Active calls of the source: *; / = not tested or not shown.

molecule | Bead autofluor | BJeLR lethal | Mtb hypoxia inh | ugtP null kill | PrP UTR inh | Mtb hypoxia inh growth | Sa RN4220 lethal
CCc1nn(CC(=O)N2CCC(C(N)=O)CC2)c(=O)c2cc3occc3n12 | 5621 | 2 | 1 | -1 | -8 | -5 | -1.0
Cc1ccc(CN2CCN(Cc3ccccc3)C(CCO)C2)s1 (stereo unspecified) | 2275 | -14 | 0 | 14 | -21 | 4 | 1.1
CCCC(=O)Nc1cccc(Oc2ccc3c(c2)C(=O)NC3=O)c1 | 4027 | 2 | 18 | 6 | -62 | 10 | 1.8
CN(CC(=O)Nc1ccccc1Cl)C(=O)COC(=O)/C=C/c1cccc(C(F)(F)F)c1 | 4244 | / | -11 | 7 | -26 | -17 | -0.1
COCCn1c(-c2ccc(C)cc2)nc2c(c(=O)c3ccccc3n2C)c1=O | 5932 | / | 6 | 4 | -3 | 10 | 1.2
Cc1nn(C)cc1CNC(=O)C1C2CCC(C2)C1C(=O)O (stereo unspecified) | / | -3 | 6 | 1 | / | -4 | 1.4
CC(=O)NC1CC2CCCC(C1)N2C(=O)Nc1cccc(C(C)=O)c1 (stereo unspecified) | 2919 | / | 10 | 7 | -10 | 1 | 0.2
CC(O)C1CNC(=S)N1CCc1cccc(F)c1 (stereo unspecified) | / | / | -4 | 1 | / | 0 | 4.1
CC(C)N1CC(C(=O)O)CC1=O (stereo unspecified) | 12144 | -2 | 8 | 5 | -30 | 4 | 5.0
CCCc1nc2sc3c(SCC(=O)NCc4ccco4)ncnc3c2c2c1CCC2 | 9807 | -6 | 2 | 42 | -2 | 5 | 5.0
COc1ccc(N2CCOCC2)c(NC(=O)c2cccnc2)c1 | 4551 | -2 | 7 | -4 | -16 | 9 | 2.5
COc1ccccc1NC(=O)Oc1ccc(C(C)=O)cc1 | 4474 | 4 | -6 | 3 | -1 | 8 | 2.5
CCCC[C@@H]1CNCCN1CCCc1cc(OC)c(OC)c(OC)c1 | 4234 | 9 | / | / | -18 | / | /
O=C1CN=C(c2ccc(Br)cc2)c2c(sc3c2CCCC3)N1CCN1CCCCC1 | 4192 | 4 | -3 | -8 | -17 | 4 | -1.5
O=C(Nc1ccc(NC(=O)c2cccs2)cc1)c1ccc2c(c1)OCCO2 | 4743 | 9 | 11 | 15 | -16 | 6 | 6.9
O=C(NCC1CCCO1)c1ccc(Br)o1 (stereo unspecified) | 4361 | -10 | 10 | 11 | 17 | 9 | 2.6
CC1=CC(C)(C)Nc2ccc(OC(=O)CN3C(=O)CCC3=O)cc21 | 8219 | 0 | 2 | 2 | -35 | 7 | 5.6
O=C(c1ccco1)N1CCN(Cc2cc(=O)c(OCc3cccc(F)c3)co2)CC1 | 5939 | 1 | 2 | 6 | -12 | 0 | 0.8
N#CCC(=O)N/N=C\c1cccc(OC/C=C/c2ccccc2)c1 | 6029 | -13 | / | / | -117 | / | /
Cc1ccc(NC(=O)c2cc(-c3ccc(C)c(C)c3O)n[nH]2)cc1C | 3412 | 3 | 14 | 6 | 6 | 7 | 2.2
NS(=O)(=O)c1ccc(NC(=S)N2CCN(S(=O)(=O)c3ccc(F)cc3)CC2)cc1 | / | -1 | -10 | -6 | / | 0 | -2.3
Cc1ccc(C(=O)NCCC(=O)Nc2ccccc2C)cc1 | 3881 | 16 | 9 | 9 | -27 | -3 | -0.6
CC(=O)Nc1nc(N2C(=O)c3ccccc3C2=O)n(-c2ccccc2)n1 | 3177 | -8 | 5 | 11 | 11 | -1 | 2.9
Cc1cc(C)n(C2CC(=O)N(c3ccc(C)c(Cl)c3)C2=O)n1 (stereo unspecified) | 6412 | 6 | 1 | 2 | -8 | 15 | 2.9

Results in PrP UTR inh, BJeLR lethal and Sa RN4220 lethal (4 entries from above):
| structure | PrP UTR inh | BJeLR lethal | Sa RN4220 lethal |
| --- | --- | --- | --- |
| O=C(c1ccco1)N1CCN(Cc2cc(=O)c(OCc3cccc(F)c3)co2)CC1 | -12 | 1 | 0.8 |
| N#CCC(=O)N/N=C\c1cccc(OC/C=C/c2ccccc2)c1 | -117 | -13 | / |
| Cc1ccc(NC(=O)c2cc(-c3ccc(C)c(C)c3O)n[nH]2)cc1C | 6 | 3 | 2.2 |
| NS(=O)(=O)c1ccc(NC(=S)N2CCN(S(=O)(=O)c3ccc(F)cc3)CC2)cc1 | / | -1 | -2.3 |

(further entries)
molecule | Bead autofluor | BJeLR lethal | Mtb hypoxia inh | ugtP null kill | PrP UTR inh | Mtb hypoxia inh growth | Sa RN4220 lethal
Cc1ccc([N+](=O)[O-])cc1/C=N/Nc1nnnn1-c1ccccc1 | 8744 | 1 | / | / | 3 | / | /
CC(C)NC(=O)COC(=O)/C=C/c1ccc(F)cc1 | 2272 | -1 | 3 | -5 | -12 | 2 | 5.3
COc1ccc2cc(CN(C(=O)Nc3ccccc3OC)C3CCCC3)c(=O)[nH]c2c1 | 2534 | -4 | 5 | -19 | 16 | 13 | -0.5
CCCCn1nnc(NC(=O)Cc2ccc(Cl)cc2)n1 | 3246 | -5 | 7 | -1 | -4 | 11 | -0.3
Cn1c(CCNC(=O)c2ccccc2F)nnc1SCc1nc2ccccc2c(=O)[nH]1 | 7561 | 1 | 17 | 9 | 10 | -4 | 4.5
Cc1ccccc1C(=O)Nc1ccc2c(c1)OCCO2 | 3952 | 6 | -7 | 5 | 0 | -24 | 0.8
COc1ccccc1CC(=O)Nc1cccc(C)n1 | 3798 | -7 | 3 | 5 | -24 | 4 | 7.4
CCn1c(N2CCN(S(=O)(=O)c3ccc(OC)cc3)CC2)nc2ccccc21 | / | 0 | -3 | 19 | -10 | -1 | 7.1
CC1CC(C)CN(CCCNC(=O)CCNC(=O)Cn2cnc3ccccc3c2=O)C1 (stereo unspecified) | 6211 | -19 | -3 | 3 | -12 | 7 | 2.5
O=C1NCCCN1Cc1ccc(Cl)cc1 | 3037 | 8 | 11 | 7 | -13 | -2 | 4.8
CC(C)C(=O)Nc1ccc(NC(=O)CCc2ccccc2)cn1 | 5002 | -10 | 1 | 11 | -3 | 13 | 1.1
CCN(CC)S(=O)(=O)c1ccc(C(=O)Nc2ccc3c(c2)OCCO3)cc1 | 10881 | -1 | 6 | 0 | -19 | 16 | -0.7
CCOC(=O)c1cc(-c2csc(COc3ccccc3Cl)n2)on1 | 3876 | -3 | 11 | -11 | -28 | 24 | 0.4
CCCCOc1ccc(S(N)(=O)=O)cc1 | 3239 | -7 | 2 | -7 | -4 | -1 | 0.4
CC(=O)Oc1ccc(-c2ccc(C(=O)OCC(=O)c3c(N)n(C)c(=O)n(C)c3=O)cc2)cc1 | 3521 | / | 3 | -6 | -6 | -4 | 6.5
C/C(=N\NC(=O)NC1CCCCC1)c1ccc(Cl)s1 | 4233 | -5 | / | / | -14 | / | /
CC(c1nnc(SCC(=O)c2c(N)n(C)c(=O)n(C)c2=O)n1-c1ccc(Cl)cc1)N(C)C (stereo unspecified) | 9022 | -7 | -11 | 4 | -15 | -5 | 3.1
Cc1ccc(SC(c2ccccc2)C(Cn2cncn2)C(=O)c2ccccc2)cc1 (stereo unspecified) | 2978 | -9 | 0 | 5 | -6 | 9 | 7.1
CN(c1ccccc1)S(=O)(=O)c1cccc(NC(=O)C2=NNC(=O)CC2)c1 | 3000 | / | 14 | 12 | 0 | 6 | 6.6
O=C(Nc1nc2ccc(S(=O)(=O)N3CCCCC3)cc2s1)C1CCCO1 (stereo unspecified) | 4106 | -4 | -3 | -4 | -3 | 4 | 2.6
COc1cccc2sc(NNC(=O)C3COc4ccccc4O3)nc12 (stereo unspecified) | 4253 | -6 | -9 | -3 | -10 | 5 | 0.2
O=C1[C@H]2[C@@H](/C=C/c3ccccc3)N3C(=O)CN(CCO)C(=O)[C@@]3(Cc3ccccc3)[C@H]2C(=O)N1c1ccccc1 | 2859 | -11 | / | / | -22 | / | /
COc1ccc(/C(C)=N/N2C(=O)c3ccccc3NC2c2ccc(O)c(OC)c2)cc1 (stereo unspecified) | 5687 | 1 | / | / | -3 | / | /
Cc1c(Br)c([N+](=O)[O-])nn1CC(=O)N1CCc2ccccc21 | 4672 | 11 | -14 | -11 | -25 | 2 | 1.1
O=C(c1ccc(F)cc1)C1CCN(C(=O)Nc2ccccc2Cl)CC1 | 4486 | -19 | 14 | 5 | -10 | 15 | 3.2
Cc1cc(/C=C(\C#N)C(=O)O)c(C)n1CC1CCCO1 (stereo unspecified) | 4295 | 13 | 9 | 6 | 0 | 5 | 0.9
CC(C)CC(=O)Nc1ccc(C(=O)COC(=O)C2=COCCO2)cc1 | / | -8 | 4 | 1 | -5 | -4 | 3.8
Cn1ncc(Cl)c1C(=O)Nc1cccnc1 | 3087 | -4 | 12 | 2 | -26 | 5 | 2.2
Cc1nc2cc(C(F)(F)F)ccc2n1C1CCN(C(=O)N2CCOCC2)CC1 | 4161 | 1 | 18 | 9 | -14 | 15 | 1.2
Cc1ccc(C(=O)Nc2ccc3cn[nH]c3c2)cc1S(=O)(=O)N1CCCCC1 | 2591 | -3 | / | -10 | -51 | / | 0.4
CCCCN(C(=O)CSc1cc(C)c2ccccc2n1)c1c(N)n(Cc2ccccc2)c(=O)[nH]c1=O | 9538 | 19 | 8 | -1 | -2 | 2 | -0.4
CCOC(=O)c1ccc(NC(=O)CN(C)S(=O)(=O)c2ccc(Br)s2)cc1 | 2314 | -2 | 10 | -2 | -8 | 4 | 2.9
Cc1nc2ccc(CCO)cc2s1 | 8253 | -5 | 7 | 17 | -34 | 1 | 5.1
Cn1c(CO)cnc1-c1ccccc1 | 2963 | 9 | 9 | 11 | 6 | 6 | 4.6
CN(CC(=O)O)C(=O)c1ccccc1 | 4361 | / | / | 3 | -7 | / | 0.3
O=S1(=O)CC2SC(=S)N(Cc3ccccc3)C2C1 (stereo unspecified) | 6023 | -7 | 11 | 10 | / | 0 | 4.8
COc1ccc(CCNC(=O)c2c(O)c3ccccc3[nH]c2=O)cc1 | 3622 | 3 | 13 | 10 | -13 | 8 | -0.8
CSc1ncnc2sc(C)c(C)c12 | 3240 | 0 | 4 | 15 | -5 | -2 | 7.7
Cc1cc(NC(=O)CSCC(=O)N(C)Cc2ccc(F)cc2)no1 | 5473 | -2 | 1 | -2 | 1 | 3 | 1.7
CCCNC(=O)c1ccccc1C(=O)NC1(C(=O)NCCC)CCCC1 | 3887 | 0 | / | / | -11 | / | /
O=C(NCCN1CCOCC1)[C@H](Cc1ccccc1)N1C(=O)c2ccccc2C1=O | 4977 | -5 | / | -2 | -3 | / | 1.7
COc1cc(C(=O)Nc2nnc(C)s2)c([N+](=O)[O-])cc1OC | 5450 | -3 | 17 | 11 | -17 | -3 | 4.2
Cc1ccc(C(=O)N/N=c2\sc3ccccc3n2C)cc1 | 2182 | -7 | / | / | -18 | / | /
CCc1ccc2oc(-c3cccc(NC(=O)c4cccnc4)c3)nc2c1 | 3016 | 9 | 15 | 6 | -56 | 14 | 8.7
COc1cccc(OC)c1C(=O)Nc1cccc2c1CCCC2 | 3711 | -1 | 21 | 5 | -2 | 9 | 5.0
COc1ccc(CCN(C(=O)c2ccccc2)C2=CC3CCC(C2)N3C)cc1OC (stereo unspecified) | / | -1 | / | 5 | / | / | 0.6
CCOc1ccc(-c2ccc(SCC(=O)N3CCN(c4ccccc4)CC3)nn2)cc1 | / | 1 | 2 | 3 | / | 9 | 2.3
Cn1ncc2c(NNC(=O)C3CCCCC3)ncnc21 | 3744 | 0 | 4 | 12 | -23 | 5 | 5.5
CCC1CCCCN1C(=O)c1cc2cc(Br)ccc2oc1=O (stereo unspecified) | 6492 | 9 | / | -6 | -26 | / | -8.3
CC1CN(C(=O)c2cccc(COc3ccccc3Cl)c2)CC(C)O1 (stereo unspecified) | 2251 | 4 | 13 | 13 | -25 | 8 | 2.2
O=C(O)CC(C(=O)Nc1ccc(Cl)cc1Cl)C1CCCO1 (stereo unspecified) | 4371 | 3 | 1 | 12 | -11 | 9 | 8.3
CC1CCN(CCCCOc2ccc([N+](=O)[O-])cc2)CC1 | 2283 | -3 | 13 | 7 | -13 | 12 | 3.9

Outcome played no part in choosing rows; overall some 4.1% were active at least once.
